ClpP mod: qHTS Assay for Activators of ClpP. AID 651965, 2013. ATP-dependent Clp protease proteolytic subunit (Bacillus subtilis (strain 168)), P80244. purified B. subtilis ClpP, FRET peptide cleavage, 20 min. Potency, µM (top dose mostly 57.5 µM), for the others: at the highest dose activity change, negative = active. 1.9% of 340,000 active; active = well fitted falling curve with a large enough effect; inconclusive = small, poorly fitted or top-dose-only effect; inactive = no such curve, though single readings can be large or run the other way; also: potency is read from the fitted curve at half-maximal effect; the source files actives as falling curves though it sought activators and does not explain the sign; nearly all actives have a fitted effect of over 65% in size; many hits overshoot -100%
Target sequence (P80244 whole entry, looked up): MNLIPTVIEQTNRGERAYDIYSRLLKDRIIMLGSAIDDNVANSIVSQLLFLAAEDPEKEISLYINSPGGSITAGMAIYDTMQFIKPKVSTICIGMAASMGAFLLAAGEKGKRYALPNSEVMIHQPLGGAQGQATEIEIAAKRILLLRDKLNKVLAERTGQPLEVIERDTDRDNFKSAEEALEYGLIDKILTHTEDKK
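FRET quenching reversal measured ClpP activation: 10 microg/mL B. subtilis ClpP at pH 8 with the FRET-FV decapeptide, read at 430 nm after 320 nm excitation. The 20-min minus 0-min signal was scaled between DMSO/no-enzyme wells and ADEP (5.8 microM final).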
gsp antagonist: antagonists of gsp mutant (McCune-Albright syndrome); gsp-mutant cells, cAMP HTRF, 30 min; control for the full effect not named in the record; Potency, µM (titrated, usually from 76.9 µM), for the others: top-dose activity change, negative = inhibition, most hits filed as inhibitors; 0.4% of 340,000 active; AID 624288; active = falling curve of any shape with a large fitted effect; inconclusive = falling curve, mostly with a smaller effect; inactive = flat or rising curve; cell line not stated here;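 also: intracellular cAMP measured with PDE inhibitor Ro 20-1724 present during compound exposure; potency is read from the fitted curve at half-maximal effect; % is scaled to controls: 0 for no effect and ±100 for the full control effect; nearly all actives have a fitted effect of over 65% in size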
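HTRF cAMP read-out (cAMP-d2 plus anti-cAMP antibody-K in lysis buffer, 30 min RT). Before lysis, cells are exposed to compounds with […] for 30 min at 37C in DPBS containing Ca/Mg, BSA and Tween 20.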
PINK1 modulator: PINK1 expression modulation; Potency, µM (highest dose often 76.6 µM), inactives show at the top dose activation (PINK1 increase), most hits filed as activators; AID 624263; 0.2% of 410,000 active; PINK1 immunofluorescence, high-content cytometry, 24 h; active = well fitted activation curve with a large enough effect; inconclusive = small, poorly fitted or top-dose-only effect; inactive = flat fitted curve, though single readings scatter; cell line not stated here;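 also: potency is read from the fitted curve at half-maximal effect; % of control where 0% means no effect; nearly all actives have a fitted effect of over 65% in size; a mitochondrial uncoupler was the plate control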
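Measures PINK1 amount and localization on or inside mitochondria by immunofluorescence. Stable cells get compounds at 5 concentrations for 24 hours before fixation and staining; CCCP controls included.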
gsp ag: agonists of gsp mutant (McCune-Albright syndrome). gsp mutant cells, cAMP HTRF, 30 min; control for the full effect not named in the record. Potency, µM (highest dose often 76.9 µM), inactives show at the top dose activation (cAMP increase), hits mostly activators. 0.13% of 340,000 active; active = well fitted activation curve with a large enough effect; inconclusive = small, poorly fitted or top-dose-only effect, or another doubt; inactive = no such curve, though single readings can be large or run the other way; cell line not stated here;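 also: phosphodiesterase inhibitor Ro 20-1724 added with compounds to block cAMP breakdown; potency is read from the fitted curve at half-maximal effect; nearly all actives have a fitted effect of over 60% in size; about a fifth of the inactives were tested at one dose only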
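Cells stably selected in G418 were plated at 2000/well, grown 16-24 hr, then given compounds in DMSO with the PDE inhibitor […] (300 uM solution added) for 30 min at 37C; cAMP was read by HTRF.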
Sfp inh: blocks B. subtilis Sfp PPTase activity; Biochemical Sfp PPTase activity, qHTS; Potency, µM, for the others: max response, negative = inhibition, hits mostly inhibitors; 3.5% of 310,000 active; AID 1490; active = well fitted inhibition curve with a large enough effect; inconclusive = small, poorly fitted or top-dose-only effect, or another doubt; inactive = no such curve, though single readings can be large or run the other way;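 also: the enzyme is Sfp with the accession as filed and its product quenches rhodamine fluorescence; potency is read from the fitted curve at half-maximal effect; 0% = enzyme reaction without inhibitor and -100% = no enzyme wells; top concentration of the series not given in the record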
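Compounds were incubated with enzyme (final 15 nM) for 15 min at room temperature before substrate addition started the reaction. Fluorescence at 525 nm excitation, 598 nm emission was recorded immediately and after 30 minutes.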
D2 agonist: human D2 receptor agonism in beta-arrestin assay; P14416; DiscoveRx PathHunter D2 beta-arrestin, luminescence, 90 min; 100% = 57 uM dopamine signal; activation, % (concentration not given with the values); 0.084% of 360,000 active; in the data active = activation above about 40%; inconclusive = about 15% to 40%; inactive = below about 15%; also: compound concentration not given in the record; the text of the record calls up to 30% inactive
Target sequence (P14416 whole entry, looked up): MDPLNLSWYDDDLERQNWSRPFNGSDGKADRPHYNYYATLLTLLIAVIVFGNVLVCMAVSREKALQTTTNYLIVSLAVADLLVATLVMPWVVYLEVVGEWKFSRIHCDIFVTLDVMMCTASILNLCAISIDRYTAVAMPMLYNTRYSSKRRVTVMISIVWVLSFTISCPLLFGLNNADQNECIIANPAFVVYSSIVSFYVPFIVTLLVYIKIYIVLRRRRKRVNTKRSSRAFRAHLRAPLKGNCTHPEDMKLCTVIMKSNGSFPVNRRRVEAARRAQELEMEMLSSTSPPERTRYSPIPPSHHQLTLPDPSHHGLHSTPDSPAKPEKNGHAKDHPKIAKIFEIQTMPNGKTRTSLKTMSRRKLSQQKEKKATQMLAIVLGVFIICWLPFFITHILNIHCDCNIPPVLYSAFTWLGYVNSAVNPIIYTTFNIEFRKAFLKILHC
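DiscoveRx PathHunter D2 beta-arrestin cells (2,100/well) attached overnight, then compound-stimulated 90 min at 37 C in HBSS/10 mM HEPES/0.1% Tween-20 buffer; beta-galactosidase complementation read by luminescence after 1 h at ambient temperature. Dopamine 57 uM final (EC100) as control.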
Menin MLL FP FL: displaces fluorescein MLL peptide from human menin | Fluorescence polarization, fluorescein-MLL peptide displacement from menin | FP activity change, % at 61.4 µM | 290,000 tested, under 10 active | AID 1766; inconclusive = falling polarisation curve, or a change in total fluorescence; inactive = total fluorescence flat and polarisation flat or rising; no compound was filed as active; the % refers to the polarisation; negative = inhibition;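 also: % of control where 0% means no effect; inhibitors lower the polarisation; unlabelled MLL peptide was the positive control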
An asterisk follows results filed as active; ? = inconclusive; nt = not tested or not shown; [ ] = another dose, or the depositor's remark. Random draw from the library; 5.1% or so of the library scored in one or more.

SMILES	ClpP mod	gsp antagonist	PINK1 modulator	gsp ag	Sfp inh	D2 agonist	Menin MLL FP FL
CC1CC1c1ccc(/C=C(\C#N)C(=O)Nc2ccc(Cl)cc2)o1 (centres undefined)	5.5%	-16%	10%	-48%	-19%	-2.5	5.3
COc1ccccc1N(CC(=O)N1CCOCC1)S(C)(=O)=O	1.4%	7%	-0.7%	0%[15.4 µM]	8%	1.8	-1.5
Cc1ccc(-n2c(SCC(=O)N3CCCc4ccccc43)nnc2-c2cccnc2)c(C)c1	nt	12%	-0.9%	13%[15.4 µM]	2%	-2.2	11
Cc1ccc(NC(=S)N2CCC(NC(=O)c3cccc(F)c3)CC2)cc1	nt	-3%	-0.3%	25%	14%	1.0	-2.9
O=C(Nc1ccc(Cl)c(Cl)c1)OCc1cccnc1	0.9%	?	4.2%	17%	9%	-1.5	1.4
O=C(Nc1c2c(nn1-c1ccc(F)cc1)CS(=O)(=O)C2)C1CCCC1	-1.7%	8%	0.5%	-1%	-1%	-2.3	-7.3
CC(=O)C1C(c2cn(-c3ccccc3)nc2-c2cccs2)NC(=O)NC1(O)C(F)(F)F (centres undefined)	-1.3%	-13%	0.7%	?	9%	-2.0	3.9
CCNC(=O)NC(=O)CSc1ccc(S(=O)(=O)N2CCCCC2)cn1	0.9%	10%	2.6%	6%	nt	-5.3	nt
COc1cc(NC(=O)c2ccccc2)c(OC)cc1NC(=O)Cc1ccc(F)cc1	-0.8%	?	4.4%	-3%[15.4 µM]	17%	9.6	2.2
CC(=O)Nc1cccc(NC(=O)C(=O)c2cn(CC(=O)N3CCCCC3)c3ccccc23)c1	nt	-4%	-0.4%	27%[15.4 µM]	7%	-4.2	?
Cc1cc(S(=O)(=O)N2CCN(C(=O)c3ccco3)CC2)ccc1F	-0.4%	5%	-0.4%	0%[15.4 µM]	8%	1.8	-0.8
C#CCNCCS(=O)(=O)N(Cc1ccc(Br)cc1)[C@@H](CC(C)C)C(=O)O	-1.6%	3%	-0.7%	nt	nt	-1.6	nt
COc1ccccc1CNc1cc(-c2ccccc2C(F)(F)F)ncn1	nt	nt	0.6%	nt	2%	nt	0.0
CCOCCCNC(=O)c1cc2c(=O)n3cccc(C)c3nc2n1C	3.9%	8%	5.9%	?	22%	-4.7	-4.1
COc1cccc(C2CN(c3ccc(F)cc3F)N=C2c2cccs2)c1OC (centres undefined)	3.7%	4%	16%	3%	13%	-0.7	11
Cc1ccc(C(=O)NCC(=O)N2CCN(c3ncccn3)CC2)s1	-21%	8%	-1.6%	10%	-11%	-2.5	1.2
Cc1ccc2cc3cc(C(=O)NCCCN4CCc5ccccc5C4)oc3nc2c1	8.2%	-17%	-1.0%	0%	-21%	-1.3	3.1
CCn1ccnc1CN(C)Cc1cn(C)nc1-c1ccccc1F	nt	8%	3.0%	2%	5%	-0.7	-0.6
CCc1ccc(N(C(=O)Cn2nnc(-c3ccccc3)n2)C(C(=O)NC2CCCCC2)c2ccccn2)cc1 (centres undefined)	-1.3%	7%	0.7%	-3%	0%	-1.3	-1.9
CCOC(=O)N1CCN(C(=O)CN(c2ccccc2)S(C)(=O)=O)CC1	nt	19%	-0.3%	5%[15.4 µM]	-4%	6.0	-3.2
COc1ccc(C(=O)c2ccc(C)cc2)c(OC)c1OC	0.3%	6%	2.6%	-8%[15.4 µM]	nt	0.1	nt
O=C1/C(=C/c2ccc([N+](=O)[O-])cc2)CCC1C1CCCC1 (centres undefined)	-3.2%	1%	6.2%	2%	13%	7.2	4.6
Cc1c(C(=O)N2CCC[C@H]2CO)oc2c(F)cccc12	-8.7%	0%	-1.0%	?	3%	-3.6	-0.8
O=[N+]([O-])c1cccc2c(S(=O)(=O)N3CCCCC3)cccc12	nt	-8%	3.8%	3%	-3%	-0.6	-0.4
Nc1c(NC=O)c(=O)n(Cc2ccccc2)c(=O)n1Cc1ccccc1	-0.4%	1%	0.4%	4%[15.4 µM]	nt	-3.3	nt

Further entries.
SMILES	ClpP mod	gsp antagonist	PINK1 modulator	gsp ag	Sfp inh	D2 agonist	Menin MLL FP FL
COc1cccc(-c2ccc3c(c2)C2CC3CCN2C(=O)c2ccc(Cl)cc2)c1 (centres undefined)	0.6%	-9%	1.1%	nt	nt	-1.6	nt
O=C(CSc1nnc(C2CC2)n1C1CC1)c1ccc(Br)s1	-0.4%	5%	0.2%	-5%[15.4 µM]	nt	-0.9	nt
N/C(=N\S(=O)(=O)c1cc(C(F)(F)F)cc(C(F)(F)F)c1)c1ccccc1	3.1%	-8%	18%	-4%	29%	-1.7	2.7
O=C(N/N=C/c1cn(-c2ccccc2)nc1-c1cccs1)c1ccccc1F	?	?	0.6%	-55%[inhibitor]	-1%	-3.8	2.3
CC1Cc2ccccc2N1C(=O)CN1CCCCC1 (centres undefined)	nt	10%	2.0%	-9%	5%	1.1	3.3
CCOc1ccc(C(C)=O)cc1COc1ccc(-c2nnco2)cc1	-0.5%	?	0.6%	7%	-11%	-0.5	nt
CCCCn1c(N)c(N(CC(C)C)C(=O)CN2C(=O)c3ccccc3C2=O)c(=O)[nH]c1=O	nt	7%	1.2%	5%[15.4 µM]	nt	-1.8	nt
CN(C)Cc1ccccc1-c1nc(NC2CC2)c2ccccc2n1	nt	nt	0.8%	nt	24%	nt	1.4
COC(=O)c1ccccc1NC(=O)c1ccc(COc2cccc3ccccc23)o1	?	-6%	5.6%	-40%[inhibitor]	56µM*	-3.2	8.9
Cn1cccc1C(=O)c1ccc(Cl)cc1Cl	5.6%	-9%	12%	-73%[inhibitor]	5%	0.1	11
O=C(CSc1nnc(-c2ccc3c(c2)OCO3)n1-c1ccccc1)c1ccc(Cl)cc1	1.3%	1%	9.5%	?	1%	-3.6	7.6
CS(=O)(=O)c1ccc(C(=O)OC2CCOC2=O)cc1[N+](=O)[O-] (centres undefined)	nt	15%	2.7%	14%	7%	-1.9	nt
FC(F)(F)c1ccc(CN2CCN(Cc3ccco3)CC2)cc1	-1.4%	8%	1.8%	-29%	-4%	-4.2	-4.3
O=S(=O)(Nc1cccc(Cl)c1)c1ccc(-n2cccn2)cc1	-2.3%	-11%	5.3%	-42%[inhibitor]	4%	-0.5	-1.2
CCN1C(=O)/C(=C\c2cn(-c3ccccc3)nc2-c2cccnc2)SC1=S	-1.7%	11%	12%	-1%[15.4 µM]	3%	0.1	-6.2
CCOC(=O)C1CCN(S(=O)(=O)c2ccc(C(C)=O)cc2)CC1	0.4%	-4%	11µM*	21%	19%	-0.4	0.2
O=C(Nc1ccccc1C(=O)N1CCCC1)c1cccc(S(=O)(=O)N2CCCCC2)c1	1.3%	-3%	-1.7%	?	-1%	-1.9	0.2
Cc1ccc(NC(=O)CCl)cc1S(=O)(=O)N1CCCCCC1	nt	nt	-0.5%	-14%[15.4 µM]	-21%	0.2	0.4
CCc1ccc(CN2CCC(n3nccc3NC(=O)c3ccccc3Cl)CC2)cc1	-9.5%	12%	2.5%	9%[15.4 µM]	10%	-2.5	nt
COc1cccc(/C=N/NC(=O)CNC(=O)c2ccco2)c1O	-5.3%	13%	0.2%	20%	13%	-1.9	-1.1
COc1ccc(C(=O)C2CCCN(C(=O)c3cc(C)on3)C2)cc1F (centres undefined)	1.0%	-3%	-1.2%	-23%	7%	-2.9	5.0
COc1ccc(NC(=S)NC(=O)c2cncc(Br)c2)cc1	nt	-5%	-0.5%	7%[15.4 µM]	nt	-9.7	nt
COc1ccc2c(c1OC)C(=O)N1N=C(c3ccc(O)cc3)CC21 (centres undefined)	-2.6%	0%	-2.5%	7%	5%	-2.5	-1.0
O=C(CSc1ccc(-c2ccc(F)cc2)nn1)N1CCCc2ccccc21	1.1%	?	-4.5%	?	-21%	-5.7	-0.2
CCC(=O)Nc1ccc(S(=O)(=O)N2CCC(c3nc4ccccc4[nH]3)CC2)cc1	-11%	18%	4.7%	0%[15.4 µM]	nt	-3.4	nt

Next section
SMILES	ClpP mod	gsp antagonist	PINK1 modulator	gsp ag	Sfp inh	D2 agonist	Menin MLL FP FL
Cc1nc(-c2ccccc2)sc1-c1nc(-c2ccncc2)ncc1S(=O)(=O)c1ccccc1	1.0%	-7%	1.9%	-8%[15.4 µM]	6%	0.9	1.9
COc1nnc(-c2ccc(C)c(S(=O)(=O)NC(C)(C)CO)c2)c2ccccc12	-4.3%	-12%	-0.2%	-13%[15.4 µM]	1%	-6.8	-4.2
Cc1cc(C)nc(N2CCCC(C(=O)NC3CC3)C2)n1 (centres undefined)	nt	2%	0.0%	-10%	10%	-3.1	-2.8
CC(=O)N1C(C)(C)CC(=NOS(=O)(=O)c2ccccc2)CC1(C)C	0.8%	-23%	1.5%	26%	6%	5.2	-7.5
CC(COc1ccc(/C=C/c2ccccc2)cc1)[N+](C)(C)C (centres undefined)	-20%	-2%	-0.3%	nt	nt	-5.1	-0.9
O=C(C1CCCN1S(=O)(=O)c1cccc2nsnc12)N1CCN(c2ccc(F)cc2)CC1 (centres undefined)	-4.5%	0%	-1.5%	?	16%	5.5	nt
COc1ccc(CC(=O)N2N=C(C)CC2(O)C(F)(F)F)cc1OC (centres undefined)	-0.6%	8%	-0.7%	6%[15.4 µM]	21%	-1.1	-2.7
CCCn1nnc(NC(=O)COc2ccc(CC)cc2)n1	-0.2%	2%	1.0%	3%	4%	0.4	4.5
Cn1cc(S(=O)(=O)N2CCc3ccccc32)cc1C(=O)Nc1ccc(Cl)cc1	?	-19%	3.6%	-10%	16%	-2.7	5.7
Cc1ccc(C(=O)N/C(=C\c2cccc([N+](=O)[O-])c2)C(=O)NC(Cc2ccccc2)C(=O)O)cc1 (centres undefined)	2.0%	-21%	0.4%	-9%	27%	-4.6	nt
CCOC(=O)c1c(NC(=O)c2ccccc2)sc2c(O)c(CN(CC)CC)ccc12	-2.8%	-11%	14%[38.3 µM]	-4%	1%	-4.4	-3.8
N#Cc1c(NC(=O)C2CC=CCC2C(=O)O)sc2c1CCCCCC2 (centres undefined)	-7.0%	-24%	-1.1%	1%	5%	-2.2	nt

Assay outcomes: PubChem BioAssay, National Center for Advancing Translational Sciences (NCATS)
